From PubChem
Sa growth 42C: blocks Staphylococcus aureus growth. relative growth, % (concentration not given with the values). AID 720641. S. aureus RN4220 growth, OD600, 20 h, 42 °C; active compounds read low. hit rate 0.53% among 170,000;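 active = growth at 42 °C up to 50% and 20 or more points under that at 30 °C, or under 10% at both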;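 also: 300 nL library stock went into each well; scaled to the means of positive and negative controls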
HCMV UL50-53 inh: inhibitors of HCMV UL50-UL53 nuclear egress complex interaction. HTRF UL50-UL53 interaction, normalized percent inhibition. inhibition, % (no concentration beside the values). hit rate 0.15% among 190,000;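 active = both replicates at 50% or more, plus weaker picks with an unusually low signal ratio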;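 also: stock transfer was 100 nL into about 20 µL; 0% = negative control wells and 100% = wells with untagged competitor protein; inactives centre near -12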
GIV-Gai inh: blocks GIV peptide binding to rat Galpha-i3 | P08753 | Galpha-i3/FITC-GIV peptide fluorescence polarization, 90 min; active compounds read low; scaled: aluminum fluoride 0%, vehicle 100% | percent of control (FP), % (no concentration beside the values) | hit rate 0.42% among 210,000;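 active = replicate mean at 85% of control or lower, very high polarization wells dropped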;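 also: wells of about 15 µL received 100 nL stock; the first replicate is given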
Target sequence (P08753 whole entry, looked up): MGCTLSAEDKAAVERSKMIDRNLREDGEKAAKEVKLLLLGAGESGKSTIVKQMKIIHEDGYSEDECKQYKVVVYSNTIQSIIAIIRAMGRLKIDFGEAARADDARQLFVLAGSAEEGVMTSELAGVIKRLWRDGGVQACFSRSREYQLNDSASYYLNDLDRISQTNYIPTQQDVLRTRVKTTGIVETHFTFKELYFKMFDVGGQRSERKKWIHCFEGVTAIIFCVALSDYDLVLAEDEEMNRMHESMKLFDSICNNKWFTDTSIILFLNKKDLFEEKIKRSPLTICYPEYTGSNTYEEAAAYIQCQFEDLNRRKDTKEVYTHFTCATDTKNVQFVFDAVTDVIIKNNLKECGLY
Sa growth 42C second temp: recorded beside Sa growth 42C, whose call it bears; relative growth, %; measured here: growth at 30 °C;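 optical density after 20 h as mean of two plates; 100% = untreated growth and lower means inhibition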
* hit, by the source's call; · = not tested or not shown; & = joins results of further samples. Outcome played no part in choosing rows, and some 0.8% of all compounds hit somewhere here.

SMILES	Sa growth 42C	Sa growth 42C second temp	HCMV UL50-53 inh	GIV-Gai inh
CSc1sc(C(=O)NCC2CC2)c(-c2cccs2)c1C#N	101.7	80.1	-8.2	103.0
Cc1nc2c3ccccc3n3c(CCCC(=O)N4CCC(C(N)=O)CC4)nnc3n2n1	95.1	84.7	-0.6&-31.8	104.2&103.9
Cc1cccc2[nH]c(SCC(=O)OC(C)C)nc12	·	·	-2.4	110.1
COc1ccccc1CNC(=O)Cn1c(=O)nc(-c2ccccc2)c2ccccc21	84.4	87.7	·	104.8
COc1cc(C2CC(=O)Nc3ccc4ccccc4c32)ccc1OC(=O)C(C)C (stereo not drawn)	125.2	87.4	-40.8	108.9
Cc1cccc2cc(C(c3nnnn3C(C)(C)C)N(Cc3ccccc3)Cc3ccco3)c(=O)[nH]c12 (stereo not drawn)	110.9	97.3	-10.5	·
CCOC(=O)c1cnn(CCOC(=O)c2cccs2)c1NC(=O)c1cccs1	105.8	97.8	·	98.7
CSc1ccccc1C(=O)OCC(=O)NC1CC1	88.9	86.6	-16.5	·
Cc1ccc(NC(=O)CN2C(=O)CCn3nc(-c4cccn4C)cc32)cc1C	·	·	-20.2	100.8
CC(Cl)(Cl)/C(O)=C(\C#N)c1nnc2n1CCCCC2	97.2	95.2	-17.1	·
COc1ccc(C)cc1NC(=O)C(=O)NCC(c1cccnc1)N1CCN(c2ccccc2F)CC1 (stereo not drawn)	125.8	86.1	-2.1	103.5
COC(=O)c1ccc(NCC(=O)Nc2cc(C)cc(C)c2)cc1	108.6	79.9	-30.8	·
CCOC(=O)C1=C(O)CCN(C)C1	110.9	79.3	·	98.9
O=C(CCCc1ccccc1)NC1CCCC1	119.6	86.7	-9.8	102.5
Clc1ccc(CSCc2nc(-c3ccsc3)no2)cc1	86.3	111.4	0.9	100.4
Cn1cc(-c2cc3n(n2)CCC(=O)N3CC(=O)NCc2ccc(Cl)cc2)c2ccccc21	97.9	77.9	·	105.7
Cc1nc2ncccc2c(=O)n1-c1ccc(F)c(NC(=O)C2CCCCC2)c1	·	·	6.7	101.4
COc1cc(OC)c(Nc2c(C(=O)N3CCOCC3)cnc3ccccc23)cc1Cl	·	·	-27.8	84.7*
O=C(N1CCOCC1)C12CC3CCC(CC(C3)C1)C2	100.8	75.8	-9.6	·
Cc1ccccc1C(=O)OCc1cc(=O)n2nc(-c3cccs3)sc2n1	93.7	95.5	·	111.7
C=Cc1ccc(COC(=O)c2nnn(-c3cccc(Cl)c3)c2C)cc1	·	·	-22.2	100.7
CNC(=O)N1CCN(c2nc3cccnc3n(C)c2=O)CC1	·	·	-87.8	105.3
Cc1ccc(Nc2nc3ccccc3s2)cc1Cl	102.6	76.1	-18.8	104.5
CC1SCC(=O)N(c2ccc(F)cc2F)C1=O (stereo not drawn)	·	·	0.6	103.3
COc1ccc(OC)c(NC(=O)Cn2c(=O)c3cccn3c3ccccc32)c1	130.6	80.8	-11.4	98.6
SMILES	Sa growth 42C	Sa growth 42C second temp	HCMV UL50-53 inh	GIV-Gai inh
O=C(O)C1Cc2c([nH]c3ccccc23)C(c2ccccc2O)N1 (stereo not drawn)	·	·	-2.7	106.7
CCN(Cc1ccccc1)S(=O)(=O)c1ccc(S(=O)(=O)N(Cc2ccccc2F)CC2CCCO2)cc1 (stereo not drawn)	·	·	-23.5	105.5
Cc1onc(-c2c(F)cccc2Cl)c1C(=O)N(C)CCc1ccccn1	100.9	86.3	-3.7	98.9
O=c1c(Cl)c(NCc2ccccn2)cnn1C12CC3CC(CC(C3)C1)C2	88.7	82.5	-13.6	95.7
O=C(NCc1ccccc1)c1ccc(S(=O)(=O)c2ccccc2)nc1	·	·	-18.7	99.7
Cc1c(NC(=S)N2CCN(c3ccc(F)cc3)CC2)c(=O)n(-c2ccccc2)n1C	95.9	100.4	-13.8	103.0
Cc1cccc(-c2nc3sc(C)cc3c(=O)o2)c1	124.2	97.7	-3.4	102.7
CC1(C)C2CC1[C@](C)(O)[C@H](O)C2 (stereo partly drawn)	91.7	92.0	-29.4	105.0
COc1ccc(N2C(=O)NC(=O)/C(=C/c3c(OC)ccc4ccccc34)C2=O)cc1	·	·	-29.8	109.7
CCOc1ccc(/C=C2/SC(=S)N(CN3CCOCC3)C2=O)cc1	·	·	-43.2	102.4
CCC(Sc1nncn2c1cc1sccc12)C(=O)Nc1cccc(OC)c1 (stereo not drawn)	110.2	91.6	·	102.0
Cc1cccc(-c2noc(CN(C(=O)/C=C/c3ccccc3Cl)C(C)C)n2)c1	121.6	91.8	·	100.8
CCOC(=O)c1cnc2c(C)cc(C)cc2c1Nc1ccccc1OCC	93.5	96.2	-27.5	101.9
C=CCSc1n[nH]c(-c2ccccc2)n1	98.7	84.2	-6.5	101.6
CCOc1ccccc1NC(=O)CN(C)S(=O)(=O)c1ccc(C(=O)N2CCOCC2)s1	98.3	85.5	·	100.4
Cc1cc(C)c2c(n1)nn1c(C)c(CCC(=O)Nc3ccc4c(c3)OCO4)c(C)nc21	113.4	106.9	1.6	101.1
CCOc1ccc(NC(=O)N2CCC(n3c(C)nc4cccnc43)CC2)cc1	82.6	91.2	·	105.7
CCOC(=O)c1c(NC(=O)c2cccc([N+](=O)[O-])c2)sc(C(=O)Nc2cccc(Cl)c2C)c1C	·	·	4.1	102.6
FC(F)(F)c1cnc(-c2cnoc2)c(Cl)c1	·	·	-2.0	109.6
Cc1ccc(CNC(=O)C(C)Sc2nc3nc(C)cc(C)n3n2)cc1 (stereo not drawn)	95.7	99.2	8.3	106.4
O=C(NCc1ccccn1)c1cccn1-c1nnc(N2CCCC2)s1	·	·	-26.8	113.8
Cn1c(SCc2cccc(-c3noc(-c4ccc(Cl)cc4)n3)c2)nnc1C(F)(F)F	100.0	96.8	-7.8	113.4
Fc1cc(F)c2nc(N3CCOCC3)sc2c1	92.9	78.8	-40.0	99.9
COC(CNC(=O)c1cc(Sc2nnc(C)s2)nc2ccccc12)OC	98.1	83.1	·	101.2
CC(C)N=Cc1ccc(-c2ccccc2)cc1	85.5	84.0	-29.1	100.1
SMILES	Sa growth 42C	Sa growth 42C second temp	HCMV UL50-53 inh	GIV-Gai inh
Cc1ccc(-n2c(=O)c3oc4ccccc4c3n(CC(=O)NC(C)(C)C)c2=O)cc1	111.7	102.0	-8.7	108.3
CC(C)OCCCN1C(=O)c2cc3occc3n2CC1(C)C(=O)NC1CCCCC1 (stereo not drawn)	·	·	-8.2	98.9
Cc1nn(-c2ccccc2)c(C)c1CCC(=O)O	98.7	95.7	-15.8	103.0
Cc1cccc2c(=O)cc(CSc3ccccc3NC(=O)C(C)(C)C)[nH]c12	101.7	90.9	·	109.8
CC(C)C1C(C#N)=C(N)Oc2nc(SCc3ccccc3)[nH]c(=O)c21 (stereo not drawn)	111.7	94.9	-0.4	106.7
Cc1cccc(C(=O)N2CCN(c3ccc(C(F)(F)F)cn3)CC2)c1C	92.1	94.3	-31.4	·
Cc1cccc(CSc2nnc3n(CC(C)C)c(=O)c4ccccc4n23)c1	·	·	-37.6	97.5
CCN(CC)S(=O)(=O)c1ccc2c(c1)c(=O)c(C(=O)NCc1ccc(Cl)cc1)cn2C	103.4	90.9	-13.5	105.8
Cc1ccc2c(c1)-c1c(cnn1CC(=O)NCCCN1CCCCC1)CO2	·	·	-10.0	106.8
c1ccc(Cc2nnc(-c3ccccc3)o2)cc1	97.1	96.0	-2.1	99.6
COc1ccc(CCC(=O)NCC(c2ccc3c(c2)CCCN3C)N2CCCC2)cc1 (stereo not drawn)	·	·	4.1	107.9
O=C(Cn1ncc(Cl)c(Cl)c1=O)NCc1ccccc1	85.8	73.5	-38.8	·
Cc1ccc(CNC(=O)C(C)n2c(=O)cc(-c3ccccc3)c3c(C)nn(C)c32)cc1 (stereo not drawn)	94.2	92.8	·	101.0
Cc1cc(C)cc(OCCCn2c(CN3CCOCC3)nc3ccccc32)c1	·	·	12.1	101.0
CC1CCC/C(=C/Nc2ccccc2C(=O)O)C1=O (stereo not drawn)	99.5	77.8	-29.5	113.4
CN(C)CC(O)COC(c1ccccc1)c1ccccc1 (stereo not drawn)	76.9	99.0	-28.2	·
Cc1ccccc1C(=O)Nc1cccc(C(=O)OCc2cc(=O)n3ccsc3n2)c1	100.6	97.0	·	99.2
O=C1NC(c2cccc(F)c2)c2c1n[nH]c2-c1cccs1 (stereo not drawn)	79.5	74.9	-25.7	110.2
COC(=O)C1=CN(N(C(C)=O)C(C)=O)C(=O)CC1	90.2	79.0	-32.5	100.4
CC(NS(=O)(=O)c1cc(C(F)(F)F)ccc1Cl)C(=O)N1CCN(c2ccccc2)CC1 (stereo not drawn)	80.3	90.9	-27.1	·
CCSc1nn(CC(=O)Nc2ccccc2)c2nc3c(c(=O)n12)C(C)(C)Cc1ccccc1-3	·	·	-19.3	101.4
Cc1ccccc1NC(=O)N1CCCC1C(=O)O (stereo not drawn)	·	·	-30.8	103.8
O=C(C1CCN(c2ccc3nncn3n2)CC1)N1CCN(c2ncccn2)CC1	·	·	-17.3	101.6
Cc1nn(-c2ccccc2)c(N)c1N=Nc1cccnc1	45.3	56.3	-124.0	·
Cc1ccc(C)c(N2CCN(S(=O)(=O)c3ccc(-c4cc(C(F)(F)F)on4)s3)CC2)c1	84.9	91.2	·	100.0
SMILES	Sa growth 42C	Sa growth 42C second temp	HCMV UL50-53 inh	GIV-Gai inh
Cc1ccc2nc(COc3ccccc3NC(=O)c3ccccc3C)cc(=O)n2c1	92.0	87.1	·	99.2
CCCN(CCC)C(=O)c1sc2nc(-c3ccc(OC)cc3)cn2c1C	100.5	80.4	-21.0	100.3
O=c1[nH]c(CN2CCOCC2)nc2ccccc12	99.6&96.9	91.4&90.4	-11.0&-10.8	108.2
CCC(C(=O)Nc1ccc(F)cc1F)n1c(C(=O)OC)cc2ccsc21 (stereo not drawn)	·	·	-0.1	93.3
COCCNC(=O)CN1C(=O)CSc2ccc(C(=O)N3CCCC3)cc21	·	·	-34.6	105.5
CC(C)CCN(C(=S)Nc1ccc(C(C)C)cc1)C1CCN(C(C)C)CC1	144.3	92.6	·	98.5
CC1=C(C(=O)Nc2ccc(Br)cc2F)C2(CCN(S(C)(=O)=O)CC2)OC1=O	99.3	77.7	-22.7	105.6
Nc1nc(-c2ccccc2)cc(=S)s1	69.0	90.7	-38.6	·
Cc1cccc(Oc2nc3c(c(=O)n(C)c(=O)n3C)n2Cc2ccccc2)c1C	99.2	87.0	-25.5	105.2
COC(=O)c1ccc(N)cc1O	·	·	-20.3	100.5
Cc1ccc(N(CC(=O)NCc2ccco2)S(=O)(=O)c2ccc(C)cc2)cc1	113.7	83.7	·	97.7
COc1ccc(N2CCN(Cc3nc4c(c(=O)[nH]c(=O)n4C)n3Cc3ccccc3C)CC2)cc1	90.0	99.9	4.0	105.1
COc1ccc2cc(CCNC(=O)C3CCCCC3)c(=O)[nH]c2c1	95.2	100.1	0.9	106.8
OCN1CCCC1	104.3	90.8	-10.5	·
Cc1cccc(Cn2c(SCC(O)CO)nc3c2c(=O)[nH]c(=O)n3C)c1 (stereo not drawn)	·	·	-12.6	109.5
CN(C(=O)CNC(=O)c1ccc(Cl)cc1)C1CCCCC1	95.8	101.2	-15.4	105.8
NS(=O)(=O)c1ccc(-n2cccc2/C=C2/C(=O)NN(c3ccccc3)C2=O)cc1	111.1	87.4	·	94.3
CN(c1ccccc1)S(=O)(=O)c1cccs1	104.5	101.5	-3.6	98.4
O=C(Cn1c2ccccc2c(=O)c2ccccc21)Nc1cc(Oc2ccc(F)cc2F)cc([N+](=O)[O-])c1	·	·	-13.1	105.9
O=C(Cn1cnc2scc(-c3ccccc3)c2c1=O)NCc1ccco1	94.3	70.1	0.7	113.4
CCOc1ccc2sc(C=NCCc3ccccn3)c(O)c2c1	·	·	-67.3	104.1
CC1=C(C(=O)OC2CCCC(C)C2)C(c2cc3c(cc2Br)OCO3)NC(=O)N1 (stereo not drawn)	·	·	-18.9	100.1
C=CCn1c(=S)sc2c(=O)[nH]cnc21	102.8	62.9	-11.0	·
O=C(NCc1ccco1)c1ccc(S(=O)(=O)N2CCCC2)cc1	99.2	92.1	-21.1	·

Looked up above:
In Sa growth 42C second temp, Cc1ccc(CNC(=O)C(C)n2c(=O)cc(-c3ccccc3)c3c(C)nn(C)c32)cc1 (stereo not drawn) has 92.8
In HCMV UL50-53 inh, COC(=O)C1=CN(N(C(C)=O)C(C)=O)C(=O)CC1 has -32.5
In Sa growth 42C second temp, O=C1NC(c2cccc(F)c2)c2c1n[nH]c2-c1cccs1 (stereo not drawn) has 74.9
In GIV-Gai inh, O=C(NCc1ccccc1)c1ccc(S(=O)(=O)c2ccccc2)nc1 has 99.7

One compound at a time, from the list above. Order of values: Sa growth 42C, Sa growth 42C second temp, HCMV UL50-53 inh, GIV-Gai inh
Cn1cc(-c2cc3n(n2)CCC(=O)N3CC(=O)NCc2ccc(Cl)cc2)c2ccccc21 is entered as 97.9, 77.9, ·, 105.7
O=c1c(Cl)c(NCc2ccccn2)cnn1C12CC3CC(CC(C3)C1)C2 is entered as 88.7, 82.5, -13.6, 95.7
CCN(CC)S(=O)(=O)c1ccc2c(c1)c(=O)c(C(=O)NCc1ccc(Cl)cc1)cn2C is entered as 103.4, 90.9, -13.5, 105.8
FC(F)(F)c1cnc(-c2cnoc2)c(Cl)c1 is entered as ·, ·, -2.0, 109.6
COC(=O)c1ccc(N)cc1O is entered as ·, ·, -20.3, 100.5

Taken from the entries so far, 2 compounds:
SMILES	Sa growth 42C	Sa growth 42C second temp	HCMV UL50-53 inh	GIV-Gai inh
O=C(Cn1cnc2scc(-c3ccccc3)c2c1=O)NCc1ccco1	94.3	70.1	0.7	113.4
CCOc1ccc2sc(C=NCCc3ccccn3)c(O)c2c1	·	·	-67.3	104.1
